High-throughput results: PubChem, National Center for Advancing Translational Sciences (NCATS)
TRPML1 ag: agonists of human TRPML1 channel | 410,000 compounds, 0.12% hits | TRPML1-expressing cells, Ca2+ dye fluorescence, FDSS; host cell line not named in the record; reference of the full effect not given here | activation, % (test concentration not listed); in the data active = activation above about 50%; inconclusive = about 30% to 50%; inactive = below about 30%; note: 0% is about no effect; the text of the record puts the active cut at 80%
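TRPML1-DL cells, Tet-induced overnight (~16 h, 37 degrees C), loaded 45-90 min at room temperature with Ca8 no-wash calcium dye plus quencher. FDSS fluorescence: 10 s baseline, compound pin-transfer, 110 s agonist read, then EC80 54-4 (4uM final) and 110 s antagonist read.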
D2 PAM: positive allosteric modulators of human D2 dopamine receptor. DiscoveRx D2 beta-arrestin cells, luminescence, 90 min; 100% = 57 uM dopamine signal. potentiation, % (test concentration not listed). 360,000 compounds, 0.23% hits. P14416; active = potentiation of 50% or more; inconclusive = 30% to 50%; inactive = 30% or less;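 note: compound concentration not given in the record; tested on top of an EC20 dose of dopamine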
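PathHunter D2 cells, attached overnight at 37 deg C, received compound in DMSO plus dopamine at EC20 (50 nM final) for 90 min at 37 deg C. Beta-arrestin recruitment was read as luminescence after 1 h with detection reagent at ambient temperature.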
TRPML1 inh: inhibitors of human TRPML1 channel; activity change, negative = inhibition, % (no concentration beside the values); Q9GZU1; 390,000 compounds, 0.02% hits; TRPML1-inducible cells, Ca2+ dye fluorescence, FDSS; stronger effect = lower value; inhibition of EC80 agonist-evoked calcium signal; in the data active means activity change below about -50%; inconclusive means about -30% to -50%; inactive means above about -30%;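 note: stimulus is agonist 54-4 at its EC80 concentration; % is set by controls: 0 for no effect and ±100 for the full control effect; compound concentration not given in the record; the text of the record puts the active cut at -80%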
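Tet-induced TRPML1-DL cells loaded with Ca8 no-wash calcium dye were read kinetically on FDSS. Compound addition was followed by EC80 agonist 54-4 (4 uM final); inhibition was read over 110 s.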
CtBP-E1A inh: inhibitors of CtBP/E1A interaction. AlphaScreen GST-E1A/His-CtBP binding, 1536-well; stronger effect = lower value; control for the full effect not named in the record. activity change, % (test concentration not listed). 340,000 compounds, 0.49% hits; in the data active means activity change below about -65%; inconclusive means about -30% to -65%; inactive means above about -30%; note: % is set by controls: 0 for no effect and ±100 for the full control effect
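Protein mix (5X: 125 nM each GST-E1A, His-CtBP) was incubated with pinned compound 2 h at 37 deg C in dark, in 50 mM Tris pH 8.0 buffer with 300 mM NaCl. Glutathione donor and nickel acceptor beads followed; AlphaScreen signal read after 1 h.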
Six1-Eya2 blk: blocks human Six1 binding to Eya2; Q15475+O00167; AlphaScreen GST-Six1/His-Eya2 binding, biochemical; stronger effect = lower value; control for the full effect not named in the record; activity change, % (test concentration not listed); 360,000 compounds, 0.56% hits; AID 651725; in the data active = activity change below about -65%; inconclusive = about -30% to -65%; inactive = above about -30%; note: % is set by controls: 0 for no effect and ±100 for the full control effect
Target sequence (O00167 whole entry, looked up): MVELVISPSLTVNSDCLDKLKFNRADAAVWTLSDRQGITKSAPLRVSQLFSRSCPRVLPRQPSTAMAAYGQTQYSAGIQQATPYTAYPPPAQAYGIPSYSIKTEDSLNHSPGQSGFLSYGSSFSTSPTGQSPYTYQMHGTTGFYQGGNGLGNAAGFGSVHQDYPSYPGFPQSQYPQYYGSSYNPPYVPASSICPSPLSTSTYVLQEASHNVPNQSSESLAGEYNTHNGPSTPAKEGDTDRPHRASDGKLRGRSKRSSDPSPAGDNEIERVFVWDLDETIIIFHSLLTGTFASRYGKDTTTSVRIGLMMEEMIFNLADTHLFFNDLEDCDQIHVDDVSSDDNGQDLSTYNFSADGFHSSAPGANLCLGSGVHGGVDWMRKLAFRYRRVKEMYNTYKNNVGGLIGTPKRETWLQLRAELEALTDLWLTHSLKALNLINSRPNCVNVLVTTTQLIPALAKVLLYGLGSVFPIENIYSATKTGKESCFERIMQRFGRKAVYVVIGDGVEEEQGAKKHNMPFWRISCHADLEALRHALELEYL
Target sequence (Q15475 whole entry, looked up): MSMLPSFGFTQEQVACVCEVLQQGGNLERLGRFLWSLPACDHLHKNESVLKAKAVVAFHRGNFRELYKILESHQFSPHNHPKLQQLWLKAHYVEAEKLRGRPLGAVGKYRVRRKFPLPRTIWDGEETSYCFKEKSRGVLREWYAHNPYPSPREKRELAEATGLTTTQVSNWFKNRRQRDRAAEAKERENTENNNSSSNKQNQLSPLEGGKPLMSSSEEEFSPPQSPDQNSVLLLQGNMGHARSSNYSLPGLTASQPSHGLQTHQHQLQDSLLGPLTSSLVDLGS
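GST-Six1 + His-Eya2 (5X stock: 250/500 nM); Tris pH 8.0, 300 mM NaCl, 0.05% BSA, 0.02% Tween 20; GSH donor/Ni acceptor beads; 1 h 37 °C dark; AlphaScreen readout.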
TRPV1 potentiator: enhances activation of the human vanilloid receptor TRPV1. potentiation, % at 8.33 µM. TRPV1-expressing cells, Fluo-8 calcium influx, capsaicin EC20 potentiation; host cell line not named in the record; control for the full effect not named in the record. Q8NER1. 320,000 compounds, 0.02% hits; active means potentiation above 80%; inconclusive means 30% to 80%; inactive means below 30%; note: 0% is about no effect
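Cells expressing TRPV1 were dye-loaded with Fluo-8 and read kinetically: 10 s baseline, 3 min after compound (agonist portion), then 2 min after EC20 capsaicin (allosteric enhancer portion). Calcium-bound dye fluorescence at 480/520 nm.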
* = called active by the depositor; u = inconclusive; x = no result given.

Each structure is followed by: TRPML1 ag	D2 PAM	TRPML1 inh	CtBP-E1A inh	Six1-Eya2 blk	TRPV1 potentiator
- Cc1nn(C)c(Cl)c1C(=O)NC(C(=O)O)c1ccccc1 (centres undefined)
  -0.4	4	-19	7	12	9
- CC(=O)NCCn1c(SCc2ccccc2C)nc2ccccc2c1=O
  -0.3	-11	-9	-3	0	0
- CCOc1ccccc1NC(=O)NC1(C(=O)NCC2CCCO2)CCCCC1 (centres undefined)
  -0.9	0	7	23	10	15
- Cc1cccc(NC(=O)CNc2cc(C)ccc2C)c1
  -0.7	11	-6	-6	-2	-10
- CCOc1ccc(CC2c3cc(OCC)c(OCC)cc3CCN2C(=O)CN2CCN(C)CC2)cc1OCC (centres undefined)
  0.7	-15	25	4	-1	0
- CC(C)Cc1nnc(NC(=O)CCN2C(=O)c3ccccc3C2=O)s1
  -0.7	-8	31	5	5	1
- COc1ccc(N2CCN(C(=O)c3cccnc3)CC2)c([N+](=O)[O-])c1
  -0.1	3	-4	-15	2	-14
- COc1ccc(N=C2SCC(=O)N2Cc2ccccc2)cc1
  4.4	-5	28	5	16	13
- COc1cc(Br)c(CC(=O)NNC(=O)c2ccc(F)cc2)cc1OC
  0.1	-6	-7	1	5	x
- CCOC(=O)C1CCCN(C(=O)c2cc3cc(Br)ccc3oc2=O)C1 (centres undefined)
  -0.5	1	-6	-8	-1	-10
- CN1CCN(c2ncnc3sc(-c4ccccc4)cc23)CC1
  1.5	-5	12	-11	-1	-4
- COc1ccc(NC(=O)C2CCCN2C(=O)OCc2ccccc2)c(OC)c1 (centres undefined)
  -0.3	-1	50	4	3	1
- CCn1c(O)c(N=NC(=O)CNc2cccc(C)c2)c2ccccc21
  1.0	-14	-1	-16	-16	16
- CCOC(=O)c1[nH]c2ccc(OC)cc2c1NC(=S)N1CCN(c2ccccc2)CC1
  -0.3	-24	1	-11	-11	-3
- CCC(C)C1(C2CCCC2)NC(=O)NC1=O (centres undefined)
  0.3	-9	-7	4	2	x
- CC(=O)N1CCN(S(=O)(=O)c2ccc(C)cc2)C1c1ccc(N(C)C)cc1 (centres undefined)
  -0.8	1	-3	-1	-4	-3
- CN1CCN(C(CNS(=O)(=O)c2ccc(Br)cc2)c2ccc3c(c2)OCO3)CC1 (centres undefined)
  1.6	-14	-1	-16	1	-7
- COc1ccc(C(=O)CSc2nnc(-c3cccs3)n2-c2ccccc2)cc1
  0.2	-29	23	17	-17	0
- CCCn1c(N)c(C(=O)COC(=O)CCS(=O)(=O)c2ccc(C)cc2)c(=O)[nH]c1=O
  0.2	4	-2	-3	-1	5
- COc1ccc(C2CC(O)(C(C)(C)O)NO2)cc1 (centres undefined)
  0.0	16	-10	11	6	-9
- Cc1nc2ccc(C(=O)NCc3ccc4c(c3)OCO4)cc2s1
  1.4	-1	-6	x	-8	-9
- Cc1ccc(CCNC(=O)c2cc(-c3ccncc3)nc3ccc(S(=O)(=O)N4CCOCC4)cc23)cc1
  0.4	-9	-12	x	10	u
- COc1ccc(C(=O)NCC(=O)N/N=C/c2c(C)[nH]c3ccccc23)cc1OC
  0.5	-13	37	x	1	6
- Cc1ccc(NC(=O)c2cc(NC(=O)C3CC=CCC3C(=O)O)ccc2N2CCOCC2)cc1Cl (centres undefined)
  -0.6	-3	0	0	2	8
- COC(=O)c1ccc(OCCOc2ccccc2)cc1
  0.3	-4	-12	34	30	13
- COc1cc(C(=O)N(c2ccc(C)c(C)c2)C2C=CS(=O)(=O)C2)cc(OC)c1OC (centres undefined)
  -0.1	0	2	2	1	-2
- NC(=O)C1CCN(Cc2nc3ccccc3c(=O)[nH]2)CC1
  -0.7	-2	20	10	6	1
- COc1ccc(/C=C2\CCn3c2nc2ccccc2c3=O)cc1OC
  -0.8	-22	7	x	-5	10
- COC(=O)c1ccc(/C=N\NC(=O)CC(=O)NCCc2ccccc2)cc1
  7.0	-3	35	-4	1	6
- CCOC(=O)c1sc(Nc2nc(C)cc(C)n2)nc1C
  0.0	-17	4	x	1	-2

Next section (2 carried over from the part before).
Each structure is followed by: TRPML1 ag	D2 PAM	TRPML1 inh	CtBP-E1A inh	Six1-Eya2 blk	TRPV1 potentiator
- COC(=O)c1ccc(/C=N\NC(=O)CC(=O)NCCc2ccccc2)cc1
  7.0	-3	35	-4	1	6
- CCOC(=O)c1sc(Nc2nc(C)cc(C)n2)nc1C
  0.0	-17	4	x	1	-2
- CCCc1cc(=O)oc2cc(C)cc(OCC(=O)N3CCC(C(=O)O)CC3)c12
  x	-9	x	0	24	u
- COc1ccc(-c2nc3ccc(Cl)cn3c2Cc2cccc(Cl)c2)cc1OC
  0.4	-6	13	0	-6	x
- COC(=O)C1=C(C)NC(=O)CC1c1cccc(Cl)c1Cl (centres undefined)
  -1.5	0	-9	4	-2	2
- Cc1noc(C)c1COc1ccc(C(=O)NNC(=O)c2ccccc2O)cc1
  -1.1	-6	-2	-2	-8	2
- CCOc1ccc2[nH]c(=O)c(CN(CCOC)C(=O)N3CCOCC3)cc2c1
  -0.3	-10	5	1	0	3
- O=C(CNC(=O)c1cccnc1)N/N=C/c1cc(Br)c(O)c(Br)c1
  -0.7	-8	-5	-2	-6	-10
- Oc1cccc(C(O)CNCc2ccc(OCc3ccc(Cl)cc3Cl)cc2)c1 (centres undefined)
  1.1	-8	9	-9	-4	0
- O=C(CCc1nnc(Cc2c[nH]c3ccccc23)o1)NCCC1CCCCO1 (centres undefined)
  -0.1	-9	-3	-22	7	x
- O=C(CNc1cc(S(=O)(=O)N2CCCC2)ccc1OCC(F)(F)F)Nc1ccc(SC(F)F)cc1
  0.7	-2	7	-25	16	10
- CCOCCCn1c(=S)[nH]c2cc(C(=O)NCCN(CC)CC)ccc2c1=O
  -0.6	1	5	-2	-2	10
- COc1ccc(N=C2S/C(=C\c3cccs3)C(=O)N2CC(C)C)cc1
  0.1	3	-10	-1	0	-1
- CC1(C)NC(=O)N(CCCOc2ccccc2Br)C1=O
  0.3	-1	13	28	4	-12
- O=c1c(CO)cc(CO)cc(CO)c1O
  0.3	-11	-7	x	-90*	9
- O=C1/C(=C/c2ccc(O)c(O)c2)SC(=S)N1Nc1ccccc1
  15	-21	29	-25	-20	-2
- CCc1ccc(/C=N/Nc2nn[nH]n2)cc1
  -0.4	-7	-15	-1	-4	-24
- CCOc1c(Cl)cc(/C=N/O)cc1OC
  1.9	-17	-3	2	-6	10
- CCOC(=O)c1[nH]c(C)c(CN(Cc2ccco2)C(=O)C(F)(F)F)c1C
  0.0	-14	3	-3	-9	-8
- Cc1nn(C)c(C)c1N1C(=O)c2cccc3c(N)ccc(c23)C1=O
  94*	-4	-11	2	-1	-16
- Clc1ccc(-c2n[nH]c3c2CCC3)c(Cl)c1
  0.0	-27	18	0	25	-16
- O=S(=O)(Nc1nc2ccccc2nc1NCC1CCCO1)c1ccc(F)cc1 (centres undefined)
  -0.5	-4	7	-5	2	5
- COc1ccc(-c2noc(C3CCCN(C(=O)c4cccc(C)c4)C3)n2)cc1 (centres undefined)
  1.2	-1	-5	3	3	12
- CCCn1c(SCC(=O)Nc2cc(Cl)ccc2Cl)n[nH]c1=O
  0.0	1	-2	3	5	-6
- COc1ccccc1NC(=O)CN1CCN(c2ccccc2)CC1
  -0.3	-6	-14	x	-12	3
- Cc1ccc(NS(=O)(=O)c2ccc(Cl)c(N=Nc3c(O)[nH]c(=O)[nH]c3=O)c2)cc1Cl
  1.8	-1	-10	-21	-4	x
- CC(C)Cn1c(N)c(C(=O)COC(=O)c2ccc3ccccc3n2)c(=O)n(C)c1=O
  11	5	9	-11	-17	u
- CCCCNC(=O)C1(C)CCCCCN1Cc1cc2ccccc2o1 (centres undefined)
  -0.6	-4	x	27	19	x
- Cc1ccc(OCc2nnc(NC(=O)c3ccco3)s2)cc1
  0.9	1	-3	-3	-7	0
- CCOC(=O)N1CCN(C(=O)C2CCN(Cc3cccc(OCc4ccccc4)c3)CC2)CC1
  0.8	-24	-9	11	5	-11
- CC(C(=O)O)N1CCCCC1 (centres undefined)
  x	-2	x	7	3	24
- C[C@H](NC(=O)N1CCn2c1nc1ccccc12)C(=O)NCCc1ccccc1
  -0.8	-10	-11	3	1	12
- O=C(NC(=S)Nc1cccc(Cl)c1)c1cncc(Br)c1
  1.3	-7	-1	1	-5	x
- Cc1ccnc(NC(=O)c2ccc([N+](=O)[O-])s2)c1
  0.8	3	11	-1	-1	-13
- O=S(=O)(Nc1cc2nc3ccccc3nc2n1Cc1ccccc1)c1ccc(Cl)cc1
  17	13	4	0	18	5
- CC[C@@H]1C=C(C(=O)O)[C@H](c2ccc3c(c2)OCO3)N1S(=O)(=O)c1ccc(C)cc1
  -0.1	x	2	5	9	x
- Cc1cccnc1NC(=O)C(C)N1C(=O)c2ccccc2C1=O (centres undefined)
  0.3	-2	7	0	6	-6
- COc1ccc(C2CC(c3cccs3)=NN2C(=O)CSc2nc3ccccc3s2)cc1 (centres undefined)
  0.0	-8	-1	12	8	-2
- CCOc1cc(CNc2ccc(O)cc2)ccc1OCc1ccc(Cl)cc1Cl
  2.9	96*	36	u	-28	17
- Cc1cc(C)c(S(=O)(=O)NCc2ccccn2)c(C)c1
  -0.9	-3	20	8	0	11
- Cc1ccnc(NS(=O)(=O)c2cccc3nsnc23)c1
  -0.8	-16	-10	1	-4	-14
- Cc1ccc(S(=O)(=O)NC2=NCN(Cc3cccnc3)CN2)cc1
  0.1	-7	-2	-4	3	10
- Cc1ccc([N+](=O)[O-])cc1NC(=S)NC(=O)c1ccco1
  -0.1	-1	2	0	0	3
- Cc1cc(C)cc(NC(=O)CN2CCC(NC(=O)c3cccc(F)c3)CC2)c1
  -0.8	-13	-3	2	-1	9
- CC1(c2ccc(F)cc2)OC(=O)c2c1ccc1ccccc21 (centres undefined)
  4.1	-2	66	3	10	x
- Cc1ccc(-n2ncc3c(NNC(=O)c4cccs4)ncnc32)cc1
  -0.2	-5	19	-15	-1	-4
- COc1cccc(N(C(=O)CCl)C(C(=O)NCCc2ccccc2)c2cccs2)c1 (centres undefined)
  -0.4	-15	0	6	-1	11
- O=C(CCCn1cnc([N+](=O)[O-])n1)Nc1cc(Cl)ccc1O
  0.3	11	18	-17	-23	-5
- COc1cccc(NC(=O)CN(C)C(=O)CC(C)c2ccccc2)c1 (centres undefined)
  0.7	-19	44	-11	-1	-16
- Cc1ccc(C(=O)c2ccccc2C(=O)OCC(=O)NCCc2ccc(Cl)cc2Cl)cc1
  3.3	-17	21	7	3	-4
- Cc1c(C(=O)NCCN2CCOCC2)oc2ccccc12
  0.4	-14	-2	1	2	-3
- CC1CC(=O)N(CC(=O)NCc2ccccc2)c2ccccc2S1(=O)=O (centres undefined)
  -0.5	-6	-1	5	2	6
- O=[N+]([O-])c1ccccc1OCCCn1cnc2ccccc21
  -0.6	-13	-1	6	-5	-5
- COc1ccccc1-c1nc(-c2cccc(C)c2)no1
  3.1	-14	-22	36	34	-11
